2A Renilla = lowers the Renilla signal of an FMDV 2A StopGo reporter; HEK cells with a luciferase reporter of 2A StopGo recoding; Potency, µM (series often up to 57.5 µM), without a hit: at the top dose signal change, negative = less light; 120,000 compounds, 0.32% hits; active means well fitted falling curve with a large enough effect; inconclusive means small, poorly fitted or top-dose-only effect; inactive means no such curve, though single readings can be large or run the other way; also: nearly all actives have a fitted effect of over 55% in size; overnight with compound
StopGo FLuc = FMDV 2A StopGo reporter, firefly signal | HEK cells with a luciferase reporter of 2A StopGo recoding | Potency, µM (top dose mostly 57.5 µM), for inactives: at the highest dose signal change, negative = less light | 120,000 compounds, 0.23% hits | AID 1745856; active = well fitted falling curve with a large enough effect; inconclusive = small, poorly fitted or top-dose-only effect; inactive = no such curve, though single readings can be large or run the other way; also: nearly all actives have a fitted effect of over 60% in size; overnight with compound
* marks the source's active call; other numbers are inactive results; ? = inconclusive; [ ] = another dose, or the depositor's remark. % is scaled to controls: 0 for no effect and ±100 for the full control effect; potency is read from the fitted curve at half-maximal effect.

SMILES	2A Renilla	StopGo FLuc
CC(C)(C)C(=O)C1C(C(C)(C)C)=CC(c2ccccc2)=CC1(C)c1ccccc1 (stereo not given)	?	-24%
COc1ccc(NC(=O)c2nnn(-c3ccc(C(C)C)cc3)c2C)c(OC)c1	-6%	-9%
COc1ccccc1-c1nc(S(=O)(=O)c2ccc3c(c2)OCCO3)c(N2CCN(C)CC2)o1	90%[activator]	9%
CCC(C(=O)Nc1nnc(CC2CCCC2)s1)c1ccccc1 (stereo not given)	-4%	-4%
CSc1ccc(C(C)NC(=O)c2cccc(C)c2)cc1 (stereo not given)	15%	0%
O=C(NCc1ccccc1Cl)C1CCN(c2ncnc3c2nc2n3CCCCC2)CC1	-2%	-6%
CC(=O)c1c(C)[nH]c(-c2csc(NC3CCCC3)n2)c1C	42%[activator]	107%[activator]
COCCCNC(=O)C1CCCN(C(=O)c2cnn(-c3ccc(F)cc3)c2-n2cccc2)C1 (stereo not given)	1%	-4%
CCOc1ccccc1C(=O)Nc1c(NC2CCCCC2)c2ccccc2oc1=O	12%	19%
CCc1cccc(-n2c(=O)c3cccnc3n2CC(=O)NCc2ccccc2)c1	-3%	-15%
CC(Sc1ccccc1F)C(N)=O (stereo not given)	2%	-2%
COc1ccc(N2C(=O)c3ccccc3NC2c2ccc(F)cc2)cc1 (stereo not given)	-1%	45%[activator]
Cc1ccccc1C(=O)Nc1cccc(-c2nc3ccccc3o2)c1	-5%	31%[activator]
O=C(NCCc1ccc(Cl)cc1)C(=O)NCC(c1ccco1)S(=O)(=O)c1ccc(Cl)cc1 (stereo not given)	-16%	-25%
Cc1c(Cl)cccc1Nc1sc(C(=O)c2ccccc2)c(N)c1S(=O)(=O)c1ccccc1	4%	-2%
C[C@@H]1OC(C2CCCCC2)N(C)[C@H]2C[C@H]3c4cc(-c5ccc6c(c5)OCO6)ccc4CCN3C[C@@H]12 (stereo not given in full)	-4%	14%
CN(C)S(=O)(=O)c1ccc2c(c1)N(CC(=O)N1CCCCC1)CCS2	10%	-6%
CCOc1ccc(CCNC(=O)CCCc2nnc3n(CC)c(=O)c4sccc4n23)cc1OCC	36%[activator]	17%
COC(=O)c1cc(-c2ccc(F)cc2)nc2onc(C)c12	4%[1.06 µM]	63%[activator]
NC(N)=N/N=C/C#Cc1ccccc1	-8%	0%
CCCN(CCC)C(=O)C(Cc1ccccc1)NS(=O)(=O)c1ccc2c(c1)c(=O)n(C)c(=O)n2C (stereo not given)	-7%	-20%
CCCCCn1c(CCC(=O)NCc2cccc(OC)c2)nc2c1c(=O)[nH]c(=O)n2CCCC	15%	14%
Cn1cc(C(=O)OCC(=O)Nc2c(F)cccc2F)c2ccccc21	5%	9%
COc1ccc2c(C)c(CC(=O)Nc3nnc(C4CC4)s3)c(=O)oc2c1OC	-5%	-6%
O=C(c1ccc([N+](=O)[O-])cc1)N1CCN(c2ccc(Nc3ccccc3)nn2)CC1	-1%	-23%

Additional entries follow:
SMILES	2A Renilla	StopGo FLuc
CCOC(=O)CCc1c(C)c2cc3c(c(C)c2oc1=O)OCN(CCc1ccccc1OC)C3	-10%	5%
Cc1cccc(NC(=O)Cn2c(=O)c3cccn3c3ccccc32)c1C	-14%	-23%
CCCc1cc(=O)oc2cc(OC(C)C(=O)NCc3ccc(S(N)(=O)=O)cc3)ccc12 (stereo not given)	37%[activator]	-10%
COc1ccc(C)cc1Nc1nc(N)c(C(=O)c2cc(C)ccc2C)s1	-2%	3%
COc1ccc(C=O)cc1COc1ccc2c(c1)CCC2	11%	0%
COc1ccc(Nc2nc(-c3ccc(C)c(C)c3)cs2)cc1	-12%	188%[activator]
Cc1ccc(-c2nnc(Nc3ccc(Cl)cc3)c3ccccc23)cc1S(=O)(=O)N1CCOCC1	12%	-6%
COc1cccc(Nc2nc3ccccc3nc2NS(=O)(=O)c2ccc(F)cc2)c1	0%	50%[activator]
CN(C)c1ccc(C(=O)N2CCC(Cc3ccccc3)CC2)cc1	-1%	60%[activator]
CC(C)NC(=O)CSc1cc(C(=O)NC2CC2)c2ccccc2n1	3%	6%
COc1ccc(-c2[nH]nc3c2C(c2cccc(OC)c2)CC(=O)O3)cc1 (stereo not given)	-13%	-13%
Cc1cc(C)cc(NC(=O)Cn2c3ncccc3c(=O)n2-c2ccc(C)c(C)c2)c1	-3%	-12%
Cc1ccccc1-c1nc2cc(NC(=O)c3cccs3)ccc2o1	19%	54%
Cc1ccc(SCc2cc(=O)[nH]c(Nc3nc(C)c4ccccc4n3)n2)cc1	-1%	12%
Cc1c(Cl)cccc1NC(=O)CN1C(=O)CCn2nc(-c3cccn3C)cc21	?	?
N#Cc1c(-c2ccccc2)cc(-c2cccs2)nc1S(=O)Cc1ccc(Cl)cc1 (stereo not given)	?	?
CCCOc1ccc(NC(=O)CC2C(=O)N(c3ccccc3)C(=O)N2CCC(C)C)cc1 (stereo not given)	40%[activator]	-16%
O=S(=O)(Nc1ccc2oc3c(c2c1)CCCC3)c1cc(Cl)ccc1Cl	143%[activator]	-20%
CCOC(=O)C1=C(CN2CCCCC2)NC(=O)NC1c1ccc(C)cc1 (stereo not given)	0%	-7%
CCC(Oc1ccccc1)C(=O)Nc1cc(-c2ccccc2F)nn1-c1ccccc1 (stereo not given)	23%	-4%
CN(CCCNC(=O)c1nc2ccccc2c(=O)[nH]1)C(=O)c1ccccc1	-5%	94%[activator]
Cc1ccc(NC(=O)c2cc3c(-c4ccccc4)nn(-c4ccccc4)c3s2)cc1	-2%	4%
Cc1ccc(N(CC(=O)Nc2cccc(F)c2)S(=O)(=O)c2cccs2)cc1	36%[activator]	-4%
Cc1ccc(C)c2sc(NC(=O)c3ccc(S(=O)(=O)N4CCC(C)CC4)cc3)nc12	-15%	0%
Cc1nn(CC(=O)O)c(=O)c2cc3cc(F)ccc3n12	3%	11%

Next section.
SMILES	2A Renilla	StopGo FLuc
CCOC(=O)c1noc2ncn(CC(=O)Nc3ccccc3OC)c(=O)c12	-8%	1%
O=C(OCc1ccc(Cl)cc1)c1cnc2ccccc2n1	8%	104%[activator]
CSc1cccc(NC(=O)COc2coc(CN3CCSCC3)cc2=O)c1	13%	7%
Cc1cccc(NC(=O)C2=C(c3ccccc3)S(=O)(=O)CCO2)n1	?	-8%
C=C(C)Cn1c(SCC(=O)Nc2ccccc2)nc2c1c(=O)n(C)c(=O)n2C	-6%	-2%
N#C/C(=C\c1cccc(F)c1)c1nc(-c2cc3ccccc3oc2=O)cs1	-9%	-7%
CC[C@H]1C[C@H]2[C@@H]3CCC4=CC(=O)CC[C@@H]4[C@H]3CC[C@]2(C)[C@H]1O	-13%	-13%
CCN(C(=O)c1ccc(F)cc1)C1CC1	6%	-1%
CC(C#N)Sc1nnc(Nc2ccccc2F)s1 (stereo not given)	36%[activator]	168%[activator]
CCCC(=O)c1ccc(Oc2ccccc2)cc1	2%	34%[activator]
O=C(NCCc1c[nH]c2ccccc12)c1ccc(F)cc1	4%	205%[activator]
Cc1ccsc1C(=O)Nc1ccc2c(c1)CCC2	4%	104%[activator]
COc1ccc(OC(=O)c2cc(Cl)c(OC)c(Cl)c2)cc1	0%	-3%
COc1cc(-c2cc(OC)c3c(C)oc(C)c3c(=O)c2)ccc1OC(=O)c1cccc(Cl)c1	?	4%
Cc1ccccc1-c1nn2c(=O)cc(CN3CCN(C(=O)/C=C/c4ccccc4)CC3)nc2s1	-4%	101%[activator]
COc1cc(C(=S)N2CCOCC2)cc(OC)c1OC	1%	-18%[11.5 µM]
NS(=O)(=O)N1CCCC(c2nc3ccccc3o2)C1 (stereo not given)	-8%	0%
O=C(CSc1nnnn1Cc1ccccc1)Nc1ccc(CN2CCOCC2)cc1	13%	7%
C=CCN1C(C(=O)OC)CN(Cc2cn(Cc3ccc(C)cc3)nn2)CCS1(=O)=O (stereo not given)	17%	10%
Cc1cc(C(=O)CSc2nnc(Nc3ccccc3F)s2)c(C)n1C	47%[activator]	136%[activator]
O=C(CSc1ncnc2sc3c(c12)CCC3)N1CCCc2ccccc21	-8%	-14%
CCC(C)[C@H](NC(=O)Nc1cc(-c2n[nH]c(=O)c3ccccc23)ccc1C)C(=O)OC (stereo not given in full)	-29%	-27%
COc1ccc(OC)c(NC(=O)[C@H]2C[C@@H]3CCCN3[C@]23C(=O)Nc2c(C)cc(Cl)cc23)c1	1%	-2%
N#CC1=C(N)N(c2cccc(C(F)(F)F)c2)C2=C(C(=O)CCC2)C12C(=O)Nc1ccc(F)cc12 (stereo not given)	-2%	-6%
CCC(C)[C@H](NC(=O)[C@@H]1Cc2ccccc2CN1)C(=O)NCc1ccc(C)cc1 (stereo not given in full)	6%	13%

Record cards, as listed above:
Entry for CC[C@H]1C[C@H]2[C@@H]3CCC4=CC(=O)CC[C@@H]4[C@H]3CC[C@]2(C)[C@H]1O : 2A Renilla = -13%; StopGo FLuc = -13%
Entry for CC(C#N)Sc1nnc(Nc2ccccc2F)s1 (stereo not given) : 2A Renilla = 36%[activator]; StopGo FLuc = 168%[activator]

Following part:
SMILES	2A Renilla	StopGo FLuc
COCCn1cnnc1SCc1ccccc1Cl	-2%	17%
Cc1cccc(C)c1NC(=O)C(NS(=O)(=O)c1ccc2c(c1)CCC(=O)N2)c1ccccc1 (stereo not given)	4%	-18%
CCCCn1cnc2c1c(O)nc(=O)n2Cc1ccccc1	-11%	1%
COc1ccc(-c2cc3c(=O)n(CC(=O)NCc4cccc(Br)c4)ncn3n2)cc1	-13%	24%
Cc1cccc(NC(=O)COc2ncnc3ccc(Br)cc23)c1C	-18%	-3%
CCCCn1c(=O)n(CC(=O)Nc2cccc(F)c2)c(=O)c2c1ncn2Cc1ccco1	7%	-1%
CCc1c(C)sc(NC(=O)c2cc(-c3ccncc3)nc3c(C)c(C)ccc23)c1C#N	-7%	-14%
O=C(NC1CC1)c1ccc(Cn2cnc3ccccc3c2=O)cc1	-6%	2%
CNC(=S)N/N=C/c1ccc(Cl)cc1	?	15%
Cc1ccccc1NC(=O)C1CCN(C(=O)N2CCOc3ccccc32)CC1	-1%	-1%
CCc1ccc(-c2nn(CC(=O)NC3CCCC3)c3c2cnc2ccc(C)cc23)cc1	-10%	3%
Cc1ccc(NS(=O)(=O)c2cc([N+](=O)[O-])ccc2N/N=C/c2ccc(-c3ccccc3)cc2)c(C)c1	136%[activator]	5%
CCOc1ccc(NC(=O)c2ccc(C)cc2)c2cccnc12	-1%	117%[activator]
Cc1nc(SCC(=O)Nc2ccccc2Br)oc1C	9%	0%
CCc1ccccc1NC(=O)Cn1nc(C)c2ccccc21	-3%	-1%
CCN(CC(=O)NCc1cccs1)C(=O)c1ccc(S(=O)(=O)N(CC)c2ccccc2)cc1	0%	0%
CCCC(=O)N1CC(=O)Nc2ccc(Cl)cc2C1c1ccc(F)cc1 (stereo not given)	11%	-13%
CC(NC(=O)CC(C)(C(=O)O)c1ccccc1)c1ccc(F)c(F)c1 (stereo not given)	18%	5%
Cc1ccc(C)c(NC(=O)CSc2nccn2Cc2ccccc2Cl)c1	34%[activator]	80%[activator]
CC1CCCC/C1=N\NC(=O)CCC(=O)Nc1ccc(I)cc1 (stereo not given)	-3%	9%
CC(NC(=O)CC1C=CCC1)c1cccs1 (stereo not given)	13%	14%
CC(OC(=O)C12CC3CC(CC(C3)C1)C2)C(=O)Nc1ccc(Oc2ccccc2)cc1 (stereo not given)	-6%	14%
O=C(Cn1nc(Cc2cccnc2)c2ccccc2c1=O)N1CCN(c2ccccc2F)CC1	-11%	-20%
Cc1nc2nc(C)c(CCC(=O)NCc3ccccc3)c(C)n2n1	-2%	-15%
Cc1noc(C)c1CS(=O)(=O)c1ccccc1Br	2%	8%

The list goes on, overlapping the part above by six compounds.
SMILES	2A Renilla	StopGo FLuc
CC1CCCC/C1=N\NC(=O)CCC(=O)Nc1ccc(I)cc1 (stereo not given)	-3%	9%
CC(NC(=O)CC1C=CCC1)c1cccs1 (stereo not given)	13%	14%
CC(OC(=O)C12CC3CC(CC(C3)C1)C2)C(=O)Nc1ccc(Oc2ccccc2)cc1 (stereo not given)	-6%	14%
O=C(Cn1nc(Cc2cccnc2)c2ccccc2c1=O)N1CCN(c2ccccc2F)CC1	-11%	-20%
Cc1nc2nc(C)c(CCC(=O)NCc3ccccc3)c(C)n2n1	-2%	-15%
Cc1noc(C)c1CS(=O)(=O)c1ccccc1Br	2%	8%
CCCn1nc(C(=O)N(Cc2ccc3c(c2)OCO3)C2CCCC2)c2ccccc2c1=O	?	?
N#C/C(=C\c1cccn1-c1cccc(Br)c1)c1ccccc1	36%[activator]	0%
O=C(COC(=O)c1ccccc1OCc1ccccc1)Nc1ccc(Cl)cc1	9%	28%
CCOc1ccc(CNC(=O)CCS(=O)(=O)c2cc3c4c(c2)CCN4C(=O)CC3)cc1OC	7%	0%
O=C(CC1SC(c2cc3ccccc3oc2=O)=NC1=O)Nc1ccc2ccccc2c1 (stereo not given)	?	4%
COc1cccc(CC(=O)Nc2c(C(=O)N3CCN(c4ccccc4)CC3)oc3ccccc23)c1	116%[activator]	2%
O=C(Nc1cc(-c2ccccc2)nn1C1CCS(=O)(=O)C1)c1ccco1 (stereo not given)	14%	73%[activator]
CC(=O)N1CCN(Cc2nc(-c3cccs3)oc2C)CC1	-6%	-3%

In the list so far, these contain a COOH group:
SMILES	2A Renilla	StopGo FLuc
Cc1nn(CC(=O)O)c(=O)c2cc3cc(F)ccc3n12	3%	11%
CC(NC(=O)CC(C)(C(=O)O)c1ccccc1)c1ccc(F)c(F)c1 (stereo not given)	18%	5%

Some of the compounds tested; the hit share may differ from the screen's.
